# Sfp PPTase inh: qHTS Assay for Inhibitors of Bacillus subtilis Sfp phosphopantetheinyl transferase (PPTase); Biochemical Sfp PPTase activity, qHTS; Potency, µM, without a hit: max response, negative = inhibition, usual class: inhibitors; actives 3.5% (n = 310,000); 4'-phosphopantetheinyl transferase ffp (Bacillus subtilis), Q9F4F7; active = well fitted inhibition curve with a large enough effect; inconclusive = small, poorly fitted or top-dose-only effect, or another doubt; inactive = no such curve, though single readings can be large or run the other way;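 also: the enzyme is Sfp with the accession as filed and its product quenches rhodamine fluorescence; potency is read from the fitted curve at half-maximal effect; 0% = enzyme reaction without inhibitor and -100% = no enzyme wells; top concentration of the series not given in the record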
#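 After 15 min at room temperature with compound, 15 nM Sfp received 5 uM rhodamine-CoA plus 12.5 uM BHQ-2-ybbR (50 mM Hepes pH 7.6, 10 mM MgCl2). Rate came from the fluorescence difference over 30 min, ex 525/em 598 nm.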
# ClpP mod: qHTS Assay for Activators of ClpP; ATP-dependent Clp protease proteolytic subunit (Bacillus subtilis (strain 168)), P80244; purified B. subtilis ClpP, FRET peptide cleavage, 20 min; Potency, µM (top dose mostly 57.5 µM), inactives show at the top dose activity change, negative = active; actives 1.9% (n = 340,000); AID 651965, 2013; active = well fitted falling curve with a large enough effect; inconclusive = small, poorly fitted or top-dose-only effect; inactive = no such curve, though single readings can be large or run the other way; also: potency is read from the fitted curve at half-maximal effect; the source files actives as falling curves though it sought activators and does not explain the sign; nearly all actives have a fitted effect of over 65% in size; many hits overshoot -100%
# Target sequence (P80244 whole entry, looked up): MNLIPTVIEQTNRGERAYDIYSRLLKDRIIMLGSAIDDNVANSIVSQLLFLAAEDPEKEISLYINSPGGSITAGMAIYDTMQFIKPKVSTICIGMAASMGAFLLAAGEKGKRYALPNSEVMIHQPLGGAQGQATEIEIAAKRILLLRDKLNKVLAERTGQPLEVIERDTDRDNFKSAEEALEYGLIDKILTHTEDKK
#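 ClpP 10 microg/mL final, pH 8 Tris/KCl buffer with BSA, glycerol, Tween-20; compound pinned in; FRET-FV substrate; RT 20 min; Ex320/Em430; ΔFRET vs ADEP 5.8 microM, DMSO, no enzyme.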
# TRPV1 PAM: HTS Assay for Compounds that Act as Potentiators of the Vanilloid Receptor 1; Transient receptor potential cation channel subfamily V member 1 (Homo sapiens), Q8NER1; TRPV1-expressing cells, Fluo-8 calcium influx, capsaicin EC20 potentiation; host cell line not named in the record; control for the full effect not named in the record; potentiation, % at 8.33 µM; actives 0.02% (n = 320,000); active means potentiation above 80%; inconclusive means 30% to 80%; inactive means below 30%; also: 0% is about no effect
#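 Fluo-8 calcium influx in TRPV1-expressing cells, kinetic read (ex 480/em 520 nm). Compound added and read 3 min for agonist activity, followed by capsaicin at EC20 final and 2 min further read for enhancement.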
# Menin-MLL FL inh: qHTS Assay for Inhibitors Targeting the Menin-MLL Interaction in MLL Related Leukemias: Competition With Fluorescein Labeled MLL-derived Peptide | Fluorescence polarization, fluorescein-MLL peptide displacement from menin | 290,000 tested, under 10 active | FP activity change, % at 61.4 µM; inconclusive = falling polarisation curve, or a change in total fluorescence; inactive = total fluorescence flat and polarisation flat or rising; no compound was filed as active; the % refers to the polarisation; negative = inhibition;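 also: % of control where 0% means no effect; inhibitors lower the polarisation; unlabelled MLL peptide was the positive control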
# TRPML1 blocker: qHTS for Inhibitors of the Human Mucolipin Transient Receptor Potential 1 (TRPML1). Mucolipin-1 (Homo sapiens), Q9GZU1. TRPML1-inducible cells, Ca2+ dye fluorescence, FDSS; active compounds read low; inhibition of EC80 agonist-evoked calcium signal. activity change, negative = inhibition, % (test concentration not listed). actives 0.02% (n = 390,000). AID 624415, 2012; in the data active means activity change below about -50%; inconclusive means about -30% to -50%; inactive means above about -30%;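 also: stimulus is agonist 54-4 at its EC80 concentration; % is scaled to controls: 0 for no effect and ±100 for the full control effect; compound concentration not given in the record; the text of the record puts the active cut at -80%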
# Target sequence (Q9GZU1 whole entry, looked up): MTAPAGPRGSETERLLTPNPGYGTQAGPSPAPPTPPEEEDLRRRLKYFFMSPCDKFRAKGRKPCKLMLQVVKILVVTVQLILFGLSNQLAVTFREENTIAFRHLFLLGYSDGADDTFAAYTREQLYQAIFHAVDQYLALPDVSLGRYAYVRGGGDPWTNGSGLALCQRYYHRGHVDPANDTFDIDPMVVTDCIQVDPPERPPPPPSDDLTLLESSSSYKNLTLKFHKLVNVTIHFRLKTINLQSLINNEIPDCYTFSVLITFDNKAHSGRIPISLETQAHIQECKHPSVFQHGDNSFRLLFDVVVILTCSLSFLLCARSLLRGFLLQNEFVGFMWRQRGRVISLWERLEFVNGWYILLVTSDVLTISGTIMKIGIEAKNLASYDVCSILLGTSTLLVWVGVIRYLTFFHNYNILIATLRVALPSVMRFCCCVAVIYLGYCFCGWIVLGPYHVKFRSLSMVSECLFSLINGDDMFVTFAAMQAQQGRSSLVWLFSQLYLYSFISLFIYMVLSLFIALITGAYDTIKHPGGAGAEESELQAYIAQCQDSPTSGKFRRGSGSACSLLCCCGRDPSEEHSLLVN
#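 TRPML1-DL cells, Tet-induced overnight (~16 h, 37 °C) at 1,500 cells/well, were loaded with Ca8 no-wash dye plus quencher for 45-90 min at room temperature. Compounds were pinned during FDSS kinetic reading; agonist 54-4 at EC80 (4 uM final) then added.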
# gsp antag: qHTS for Antagonists of gsp, the Etiologic Mutation Responsible for Fibrous Dysplasia/McCune-Albright Syndrome: qHTS. gsp-mutant cells, cAMP HTRF, 30 min; control for the full effect not named in the record. actives 0.4% (n = 340,000). Potency, µM (highest dose often 76.9 µM), for inactives: at the top dose activity change, negative = inhibition, most hits filed as inhibitors. AID 624288, 2012; active = falling curve of any shape with a large fitted effect; inconclusive = falling curve, mostly with a smaller effect; inactive = flat or rising curve; cell line not stated here;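 also: intracellular cAMP measured with PDE inhibitor Ro 20-1724 present during compound exposure; potency is read from the fitted curve at half-maximal effect; % is scaled to controls: 0 for no effect and ±100 for the full control effect; nearly all actives have a fitted effect of over 65% in size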
#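 HTRF cAMP measurement after 30 min RT detection following 30 min, 37C compound treatment alongside […] (added as 300 uM solution) in G418-selected cells seeded at 2000/well and grown 16–24 h.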
# gsp ag: qHTS for Agonist of gsp, the Etiologic Mutation Responsible for Fibrous Dysplasia/McCune-Albright Syndrome: qHTS; Potency, µM (top dose mostly 76.9 µM), inactives show top-dose activation (cAMP increase), usual class: activators; actives 0.13% (n = 340,000); AID 624287, 2012; gsp mutant cells, cAMP HTRF, 30 min; control for the full effect not named in the record; active = well fitted activation curve with a large enough effect; inconclusive = small, poorly fitted or top-dose-only effect, or another doubt; inactive = no such curve, though single readings can be large or run the other way; cell line not stated here;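 also: phosphodiesterase inhibitor Ro 20-1724 added with compounds to block cAMP breakdown; potency is read from the fitted curve at half-maximal effect; nearly all actives have a fitted effect of over 60% in size; about a fifth of the inactives were tested at one dose only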
#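 Cells stably selected in G418 were plated at 2000/well, grown 16-24 hr, then given compounds in DMSO with the PDE inhibitor […] (300 uM solution added) for 30 min at 37C; cAMP was read by HTRF.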
# Active calls of the source: *; ? = inconclusive; · = no result given; [ ] = dose if it differs, or a comment.
1	Cn1nc(C(F)(F)F)c(-c2ccc(F)cc2)c1NC(=O)CSCC(=O)O
2	O=C(Cn1cnc2ccccc21)N/N=C/c1ccc([N+](=O)[O-])cc1
3	Cc1cc(C)c(C)c(S(=O)(=O)N2CCC(C(=O)NC3=NCCS3)CC2)c1C
4	Cc1cc(C)c(S(C)(=O)=O)c(NN)n1
5	CC(C)N=C1NN=C(c2cccs2)C(CC(=O)O)S1 (stereo not given)
6	CCc1ccccc1NC(=O)C1CCN(S(C)(=O)=O)CC1
7	O=C(Nc1ccc2oc(-c3cccnc3)nc2c1)c1cc2ccccc2o1
8	CC1CCCC(NC(=O)c2cccc(S(=O)(=O)N3CCCCC3)c2)C1C (stereo not given)
Compound,1,2,3,4,5,6,7,8
Sfp PPTase inh,?,2%,·,?,?,·,-4%,23%
ClpP mod,0.3%,·,-2.3%,·,·,1.3%,-2.1%,-0.4%
TRPV1 PAM,3,-1,27,14,5,·,-14,-9
Menin-MLL FL inh,-4.1,-0.6,·,-2.1,2.9,·,7.5,·
TRPML1 blocker,17,15,-3,12,6,5,-16,-3
gsp antag,-1%,-7%,-2%,12%,6%,11%,1%[15.4 µM],-2%
gsp ag,1%[15.4 µM],2%[15.4 µM],-14%,?,14%[15.4 µM],-19%,10%,19%

9	CC(NS(=O)(=O)c1ccc2c(c1)CC(=O)N2C)c1ccccc1 (stereo not given)
10	COc1ccc(-c2c3c(nc4sc5c(=O)[nH]c(C)nc5c24)CCC3)cc1
11	COc1ccc(N(C)S(=O)(=O)c2cccc(C(=O)OCC(=O)Nc3sc4c(c3C#N)CCCCC4)c2)cc1
12	CCOc1ccc(CCNC(=O)c2cccc(S(=O)(=O)N3CCCC3)c2)cc1OCC
13	O=C(Nc1cccc(Cl)c1)NC1(C(=O)NCc2cccs2)CCCCC1
14	Cc1ccc(S(=O)(=O)Cc2cn3cccnc3n2)cc1
15	CCc1ccc(C(=O)c2cncc(Br)c2)cc1
16	O=C(NCc1ccccc1CN1CCCC1)c1ccc(S(=O)(=O)Nc2ccccc2F)cc1
Compound,9,10,11,12,13,14,15,16
Sfp PPTase inh,7%,-2%,18%,·,-2%,7%,6%,·
ClpP mod,·,28µM*,-1.5%,-1.4%,0.0%,-3.1%,-2.1%,-0.5%
TRPV1 PAM,3,1,8,-3,17,-10,-19,·
Menin-MLL FL inh,?,-2.0,2.3,·,3.5,-2.1,-4.6,·
TRPML1 blocker,3,16,1,-14,-1,9,-2,-8
gsp antag,4%,0%,9%,-5%,5%,2%,7%,·
gsp ag,-5%[15.4 µM],11%,8%,-37%[inhibitor],-1%,-19%,-13%,-23%

# 3 of the compounds above, with two lines to a compound:
# Sequence of screens: Sfp PPTase inh | ClpP mod | TRPV1 PAM | Menin-MLL FL inh | TRPML1 blocker | gsp antag | gsp ag
3) Cc1cc(C)c(C)c(S(=O)(=O)N2CCC(C(=O)NC3=NCCS3)CC2)c1C
    · | -2.3% | 27 | · | -3 | -2% | -14%
4) Cc1cc(C)c(S(C)(=O)=O)c(NN)n1
    ? | · | 14 | -2.1 | 12 | 12% | ?
5) CC(C)N=C1NN=C(c2cccs2)C(CC(=O)O)S1 (stereo not given)
    ? | · | 5 | 2.9 | 6 | 6% | 14%[15.4 µM]

# Other results.
17	CCC(C)(C)n1nnnc1C(c1cc2cc(C)cc(C)c2[nH]c1=O)N1CCCC1 (stereo not given)
18	COc1cc2c(c(OC)c1)C(c1cccc(OC)c1OC)CC(=O)N2 (stereo not given)
19	O=C(Nc1ccc2c(c1)OCCO2)C(c1ccc(F)cc1)N1CCCCC1 (stereo not given)
20	C=C(C)COc1ccc2c(CC)cc(=O)oc2c1C
21	COc1ccccc1NC(=O)c1ccc2c(=O)n3c(nc2c1)CCC3
22	Cc1nc(Nc2ccc(O)cc2)c2c3c(sc2n1)CCCC3
23	O=C1/C(=C\Nc2ccccc2)CCN1c1ncccn1
24	O=C(CSCc1ccccc1)N/N=C/c1ccccc1OCc1ccccc1
Compound,17,18,19,20,21,22,23,24
Sfp PPTase inh,25µM*,28%,3%,14%,·,-12%,-4%,-7%
ClpP mod,?,-1.3%,-2.0%,13µM*,-2.5%,·,-4.8%,-0.7%
TRPV1 PAM,4,-5,-18,-13,-4,-6,3,-11
Menin-MLL FL inh,2.1,1.5,5.0,-0.3,·,-0.4,6.4,3.0
TRPML1 blocker,-8,-11,5,36,25,14,-7,7
gsp antag,-10%,1%,12%,-12%,-4%,3%,0%,-5%
gsp ag,-37%[inhibitor],9%,-2%,22%,10%[15.4 µM],18%[15.4 µM],?,-12%

# Ordered by formula weight (largest number first): four of the compounds above.
17	CCC(C)(C)n1nnnc1C(c1cc2cc(C)cc(C)c2[nH]c1=O)N1CCCC1 (stereo not given)
19	O=C(Nc1ccc2c(c1)OCCO2)C(c1ccc(F)cc1)N1CCCCC1 (stereo not given)
21	COc1ccccc1NC(=O)c1ccc2c(=O)n3c(nc2c1)CCC3
20	C=C(C)COc1ccc2c(CC)cc(=O)oc2c1C
Compound,17,19,21,20
Sfp PPTase inh,25µM*,3%,·,14%
ClpP mod,?,-2.0%,-2.5%,13µM*
TRPV1 PAM,4,-18,-4,-13
Menin-MLL FL inh,2.1,5.0,·,-0.3
TRPML1 blocker,-8,5,25,36
gsp antag,-10%,12%,-4%,-12%
gsp ag,-37%[inhibitor],-2%,10%[15.4 µM],22%

# (cont.)
25	COc1cccc(NC(=O)c2ccc(OC(F)(F)F)cc2)c1
26	COc1ccc(S(=O)(=O)Nc2ccccc2C(=O)N2CCOCC2)cc1Br
27	Cn1c(=O)c2sccc2n(Cc2ccc(Br)cc2)c1=O
28	Cc1noc(C(=O)Nc2cccnc2)c1Cl
29	CC1CCN(CCC(=O)N2CCCc3c2c(=O)oc2ccc(O)cc32)CC1
Compound,25,26,27,28,29
Sfp PPTase inh,·,18%,6%,11%,23%
ClpP mod,1.5%,0.3%,·,0.8%,3.1%
TRPV1 PAM,-24,16,6,21,0
Menin-MLL FL inh,·,·,0.0,-0.9,2.0
TRPML1 blocker,-2,6,-8,1,-8
gsp antag,-1%,7%,-16%,7%,2%
gsp ag,·,2%,-24%,?,-53%[inhibitor]
